Compound activity as filed in PubChem BioAssay.
YB-1 expression: YB-1 expression inhibition. U2OS, qRT-PCR YB-1 vs CDIP delta delta Cp, 16 h; stronger effect = higher value; zero = DMSO, each unit about twofold. delta delta Cp (YB-1 minus CDIP) (concentration not given with the values). actives 0.37% (n = 30,000);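 active means delta delta Cp rounded down to an integer at or above 3, about 3 SD of DMSO wells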;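 further: higher means less YB-1 transcript or more CDIP transcript relative to DMSO; stock transfer was 100 nL into about 100 µL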
* hit, by the source's call.

What do the screens show for `COCCOC(=O)N1C(=O)[C@@]2(c3ccccc31)[C@H](C(=O)Nc1nc3ccccc3s1)[C@H]1C(=O)O[C@H](c3ccccc3)[C@H](c3ccccc3)N1[C@@H]2c1ccccc1OCCO`?
YB-1 expression: 0.21

How did C[C@@H]1CN([C@H](C)CO)C(=O)CCCn2cc(nn2)CO[C@H]1CN(C)C(=O)Nc1ccc(F)cc1 do in these assays?
YB-1 expression: -0.28

How did COC(=O)CCCCCCC(=O)N/N=C/CCCC1OCC(C)(C)CO1 do in these assays?
YB-1 expression: 0.43

How did [N-]=[N+]=NCc1ccccc1C[C@@]1(C(=O)NCC(O)CO)N=C(c2ccc(OCCCO)cc2)O[C@@H]1c1ccccc1 (stereo not given in full) do in these assays?
YB-1 expression: 9.1*

How did C=CCOC(=O)[C@H]1[C@@H]2C(=O)O[C@@H](c3ccccc3)[C@@H](c3ccccc3)N2[C@@H](c2ccc(OCCOC(=O)[C@@H]3C[C@@H]4C(=O)N5CCC[C@H]5C(=O)N4[C@@H]3c3cccc(OCCO)c3)cc2)[C@]12C(=O)Nc1ccc(I)cc12 do in these assays?
YB-1 expression: -0.59

Results for Cc1ccc(/C=N/NC(=O)CCCCCCC(=O)Nc2ccccc2O)o1 ?
YB-1 expression: 0.025

How did C[C@@H]1CN([C@H](C)CO)C(=O)CCCn2nncc2CO[C@H]1CN(C)C(=O)Nc1ccc2c(c1)OCO2 do in these assays?
YB-1 expression: 0.084

Results for CNC(=O)C1=C[C@@H](c2csc3ccccc23)C[C@@H](OCc2ccc(CO)cc2)O1 ?
YB-1 expression: -0.048

What do the screens show for `COc1cc(/C=N/NC(=O)c2ccccn2)ccc1O`?
YB-1 expression: -0.59

What do the screens show for `C[C@@H]1CN([C@H](C)CO)C(=O)CCCn2nncc2CO[C@@H]1CN(C)Cc1ccc(-c2ccccc2)cc1`?
YB-1 expression: -0.32

Results for O=C(N/N=C/c1ccc(O)c2ccccc12)c1ccccc1O ?
YB-1 expression: -0.11

Results for C[C@H]1CN([C@@H](C)CO)C(=O)CCCn2cc(nn2)CO[C@@H]1CN(C)CC1CCCCC1 ?
YB-1 expression: -0.22

Results for C[C@H]1CN([C@@H](C)CO)C(=O)CCCn2cc(nn2)CO[C@@H]1CN(C)S(=O)(=O)c1cccc(F)c1 ?
YB-1 expression: -0.38

How did C[C@@H]1CN([C@@H](C)CO)C(=O)CCCn2cc(nn2)CO[C@@H]1CN(C)S(C)(=O)=O do in these assays?
YB-1 expression: -0.086

What do the screens show for `O=C(N/N=C/c1cc(O)ccc1[N+](=O)[O-])c1ccccn1`?
YB-1 expression: 0.099

Overlap with the part before: 2 entries, followed by the next part.
How did C[C@@H]1CN([C@@H](C)CO)C(=O)CCCn2cc(nn2)CO[C@@H]1CN(C)S(C)(=O)=O do in these assays?
YB-1 expression: -0.086

What do the screens show for `O=C(N/N=C/c1cc(O)ccc1[N+](=O)[O-])c1ccccn1`?
YB-1 expression: 0.099

Results for C[C@H]1CN([C@@H](C)CO)C(=O)CCCn2cc(nn2)CO[C@H]1CN(C)C(=O)Nc1ccc2c(c1)OCCO2 ?
YB-1 expression: -0.3

How did COc1ccc(Br)c(/C=N/NC(=O)c2cccc(C(=O)NO)c2)c1 do in these assays?
YB-1 expression: -0.49

What do the screens show for `C[C@H](CO)N1C[C@H](C)[C@H](CN(C)Cc2ccncc2)Oc2ncc(/C=C/c3ccccc3)cc2C1=O`?
YB-1 expression: 0.072

What do the screens show for `C[C@H](CO)N1C[C@H](C)[C@@H](CN(C)Cc2ccc3c(c2)OCCO3)OCc2cnnn2CCCC1=O`?
YB-1 expression: 0.39

How did C[C@@H]1CN([C@H](C)CO)C(=O)CCCn2cc(nn2)CO[C@H]1CN(C)Cc1ccncc1 do in these assays?
YB-1 expression: -0.14

How did C=CCOC(=O)[C@@H]1[C@H]2C(=O)O[C@H](c3ccccc3)[C@H](c3ccccc3)N2[C@H](c2ccc(OCCOC(=O)[C@@H]3C[C@@H]4C(=O)N[C@@H](Cc5ccccc5)C(=O)N4[C@@H]3c3ccc(O)cc3)cc2)[C@@]12C(=O)Nc1ccccc12 do in these assays?
YB-1 expression: -0.2

Results for CC(=O)N1Cc2ccccc2C[C@@]2(N=C(c3ccc(OCCCO)cc3)O[C@H]2c2ccccc2)C1=O ?
YB-1 expression: 0.019

Results for C[C@H](CO)N1C[C@H](C)[C@H](CN(C)C(=O)c2ccccc2)OCc2cn(nn2)CCCC1=O ?
YB-1 expression: -0.38

How did C[N+](C)(C)CCCC[C@@H]1NC(=O)[C@H]2C[C@@H](C(=O)NCCCCCCN)[C@@H](c3ccc(O)cc3)N2C1=O do in these assays?
YB-1 expression: 0.29

What do the screens show for `C[C@H](CO)N1C[C@H](C)[C@H](CN(C)C(=O)Nc2ccccc2)Oc2ncc(C#Cc3ccccc3)cc2C1=O`?
YB-1 expression: -0.04

Results for CN(C)C(=O)[C@@]1(Cc2ccccc2)COC(c2ccc(OCCCO)cc2)=N1 ?
YB-1 expression: 0.88

Results for COc1ccc(/C=N/NC(=O)c2ccccn2)cc1Br ?
YB-1 expression: 0.27

What do the screens show for `CC(C)NC(=O)N(C)C[C@H]1OCc2cnnn2CCCC(=O)N([C@@H](C)CO)C[C@@H]1C`?
YB-1 expression: -0.39

Results for NC(=O)COc1ccccc1/C=N/NC(=O)c1ccccc1O ?
YB-1 expression: 0.5

Results for C[C@H]1CN([C@@H](C)CO)C(=O)CCCn2cc(nn2)CO[C@@H]1CN(C)S(=O)(=O)c1ccccc1 ?
YB-1 expression: 0.27

Results for C[C@H](CO)N1C[C@H](C)[C@H](CN(C)C(=O)Nc2ccc3c(c2)OCO3)Oc2ncc(C#CCN(C)C)cc2C1=O ?
YB-1 expression: -0.081

How did O=C(N/N=C/c1cc(F)ccc1O)c1ccccc1O do in these assays?
YB-1 expression: 0.29

Results for COc1ccc(C#Cc2ccc3c(c2)[C@]2(C(=O)N3)[C@H](C(=O)N3CCc4cc(OC)c(OC)cc4C3)[C@H]3C(=O)O[C@H](c4ccccc4)[C@H](c4ccccc4)N3[C@@H]2c2ccccc2OCCO)cc1 ?
YB-1 expression: -0.17

Results for O=C(N/N=C/c1cc2c(cc1Br)OCO2)c1ccccc1O ?
YB-1 expression: 0.48

What do the screens show for `C[C@H](CO)N1C[C@H](C)[C@H](CN(C)Cc2ccc3c(c2)OCO3)Oc2ncc(-c3cccc(C(F)(F)F)c3)cc2C1=O`?
YB-1 expression: 0.31

How did C[C@H](CO)N1C[C@H](C)[C@@H](CN(C)C(=O)Nc2ccc3c(c2)OCCO3)OCc2cn(nn2)CCCC1=O do in these assays?
YB-1 expression: 0.21

Results for C=C(C)[C@@H]1CC=C(/C=N/NC(=O)CCCCCCC(=O)Nc2ccccc2O)CC1 ?
YB-1 expression: 0.4

Results for O=C(C1=C[C@@H](c2csc3ccccc23)C[C@@H](OCc2ccc(CO)cc2)O1)N1CCCCC1 ?
YB-1 expression: 0.19

What do the screens show for `CCCN(C)C[C@@H]1Oc2ncc(-c3ccccc3)cc2C(=O)N([C@H](C)CO)C[C@@H]1C`?
YB-1 expression: -0.22

What do the screens show for `C[C@@H]1CN([C@@H](C)CO)C(=O)CCCn2nncc2CO[C@H]1CN(C)Cc1ccc(Oc2ccccc2)cc1`?
YB-1 expression: 0.39

Results for CNC[C@@H]1Oc2ncc(C#Cc3ccccc3)cc2C(=O)N([C@H](C)CO)C[C@@H]1C ?
YB-1 expression: -0.34

Results for C[C@H](CO)N1C[C@H](C)[C@H](CN(C)C)Oc2ncc(/C=C/c3ccccc3)cc2C1=O ?
YB-1 expression: -0.32

What do the screens show for `C[C@@H]1CN([C@@H](C)CO)C(=O)CCCn2nncc2CO[C@@H]1CN(C)S(=O)(=O)c1ccccc1`?
YB-1 expression: 0.053

How did O=C(N/N=C/c1ccc2c(c1)OCCO2)c1ccccn1 do in these assays?
YB-1 expression: 0.043

Results for O=C(N1CCOCC1)[C@]1(CCS(=O)(=O)c2ccccc2)N=C(c2ccc(OCCCO)cc2)O[C@@H]1c1ccccc1 ?
YB-1 expression: 0.015

How did O=C(CS)NCCCCCCNC(=O)[C@@H]1C[C@@H]2C(=O)NCC(=O)N2[C@@H]1c1ccc(O)cc1 do in these assays?
YB-1 expression: 0.53

What do the screens show for `CN(C)CCCC[C@@H]1NC(=O)[C@H]2C[C@@H](C(=O)NCc3ccc(F)cc3)[C@@H](c3ccc(O)cc3)N2C1=O`?
YB-1 expression: 0.18

Results for C[C@@H]1CN([C@H](C)CO)C(=O)CCCn2cc(nn2)CO[C@@H]1CN(C)S(=O)(=O)c1ccc(Cl)cc1 ?
YB-1 expression: -0.095

Results for O=S(=O)(N[C@@H]1CCCN(Cc2ccc(OCCO)cc2)C1)c1ccccc1 ?
YB-1 expression: -0.081

By substructure, those above with sulfur.
What do the screens show for `COCCOC(=O)N1C(=O)[C@@]2(c3ccccc31)[C@H](C(=O)Nc1nc3ccccc3s1)[C@H]1C(=O)O[C@H](c3ccccc3)[C@H](c3ccccc3)N1[C@@H]2c1ccccc1OCCO`?
YB-1 expression: 0.21

Results for CNC(=O)C1=C[C@@H](c2csc3ccccc23)C[C@@H](OCc2ccc(CO)cc2)O1 ?
YB-1 expression: -0.048

Results for C[C@H]1CN([C@@H](C)CO)C(=O)CCCn2cc(nn2)CO[C@@H]1CN(C)S(=O)(=O)c1cccc(F)c1 ?
YB-1 expression: -0.38

How did C[C@@H]1CN([C@@H](C)CO)C(=O)CCCn2cc(nn2)CO[C@@H]1CN(C)S(C)(=O)=O do in these assays?
YB-1 expression: -0.086

Results for C[C@H]1CN([C@@H](C)CO)C(=O)CCCn2cc(nn2)CO[C@@H]1CN(C)S(=O)(=O)c1ccccc1 ?
YB-1 expression: 0.27

Results for O=C(C1=C[C@@H](c2csc3ccccc23)C[C@@H](OCc2ccc(CO)cc2)O1)N1CCCCC1 ?
YB-1 expression: 0.19

What do the screens show for `C[C@@H]1CN([C@@H](C)CO)C(=O)CCCn2nncc2CO[C@@H]1CN(C)S(=O)(=O)c1ccccc1`?
YB-1 expression: 0.053

Results for O=C(N1CCOCC1)[C@]1(CCS(=O)(=O)c2ccccc2)N=C(c2ccc(OCCCO)cc2)O[C@@H]1c1ccccc1 ?
YB-1 expression: 0.015

How did O=C(CS)NCCCCCCNC(=O)[C@@H]1C[C@@H]2C(=O)NCC(=O)N2[C@@H]1c1ccc(O)cc1 do in these assays?
YB-1 expression: 0.53

Results for C[C@@H]1CN([C@H](C)CO)C(=O)CCCn2cc(nn2)CO[C@@H]1CN(C)S(=O)(=O)c1ccc(Cl)cc1 ?
YB-1 expression: -0.095

Results for O=S(=O)(N[C@@H]1CCCN(Cc2ccc(OCCO)cc2)C1)c1ccccc1 ?
YB-1 expression: -0.081

Not all compounds are listed; rates above refer to the full screens.
